Bioassay records deposited in PubChem BioAssay by ICCB-Longwood Screening Facility, Harvard Medical School.
MgrA-DNA mod: alters Staphylococcus aureus MgrA binding to DNA; 84,000 compounds, 0.13% hits; inhibition, %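 (about 10 µg/mL by stock and volumes)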; fluorescence polarization;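 active means above 50% in either of two replicates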;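 further: 0% = protein plus DNA without compound and 100% = DNA alone without protein; higher means less MgrA bound to DNA so lower polarization; one replicate is shown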
Sa helicase inh: S. aureus DNA helicase inhibition. purified S. aureus helicase, fluorescence unwinding assay; about half of the hits fall short of the stated cut. inhibition, %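 (tested at about 80 µM)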. 120,000 compounds, 0.05% hits. AID 485395;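 active means both duplicates at 50% or more, or one of them with a favoured structure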;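 further: 0% = mean of negative control wells and 100% = mean of positive control wells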
Active calls of the source: *; nt = not tested or not shown; & = joins results of further samples.

Values in the order – MgrA-DNA mod	Sa helicase inh
> CCN(CCCc1ccccc1)CCCc1ccccc1
 : 4.3&2.6	nt
> COCCCN1CN=C(SCc2ccc(Cl)cc2)NC1
 : -5.2	nt
> CC(C)NC(=O)Cn1c(=O)c2cccn2c2cccnc21
 : 1.0	5
> CN1CCN(c2ccc(NC(=O)c3ccc4c(c3)[nH]c(=O)n4C3CCCCC3)cc2)CC1
 : -1.0	1
> NC(=O)COc1ccccc1O
 : 0.1	-1
> O=S(=O)(c1ccccc1)c1cnc2ccccc2c1N1CCC2(CC1)OCCO2
 : -0.3	6
> CCOCCc1nnc(NS(=O)(=O)c2ccc(OC)cc2)s1
 : 3.8	-18
> CC(=O)N1N=C(c2cccs2)CC1c1cccs1 (stereo unspecified)
 : -0.7	3
> Cc1noc(C)c1C(=O)O/N=C(\N)c1ccc(-c2csnn2)cc1
 : nt	24
> CC1CCN(C(=O)Nc2cccc(Cl)c2Cl)CC1
 : 1.1	10
> Cc1ccc(S(=O)(=O)NC(=O)c2cc(C)n(-c3ccccc3)c2C)cc1
 : nt	3
> Cc1ccccc1Nc1nc(N)nc(COc2ncnc3sccc23)n1
 : nt	-11
> N#Cc1ccccc1N=Cc1ccc(Br)cc1
 : -1.1	5
> O=C(OCCCN=C1NS(=O)(=O)c2ccccc21)c1ccccc1Br
 : 2.3	nt
> CSc1cccc(NC(=S)N2CCN3C(=O)c4ccccc4C32c2ccccc2)c1 (stereo unspecified)
 : -1.7	nt
> CCOC(=O)c1c(C)csc1NC(=O)c1ccc(C(C)(C)C)cc1
 : -1.0	nt
> Cc1nnn(C23CC4CC(CC(C(=O)NCc5ccccc5)(C4)C2)C3)n1
 : -0.3	10
> COC(=O)c1sccc1NC(=O)CSCc1ccc(Cl)cc1
 : -1.1	nt
> Cc1cc(OC(=O)c2ccccc2Cl)n(CCC#N)n1
 : nt	15
> CC1=C(C(=O)Nc2ccccc2C(=O)NC(C)(C)C)SCCO1
 : nt	-5
> COC(=O)c1c(Cn2cc(Br)ccc2=O)nc2ccccc2c1C
 : nt	0
> c1ccc2sc(NN=C3CCCC3)nc2c1
 : nt	8
> COc1ccc(C=Nc2cccc(Cl)c2)cc1
 : -0.7	5
> O=C(CSc1oc(-c2ccccc2)nc1S(=O)(=O)c1ccc(Cl)cc1)NCC1CCCO1 (stereo unspecified)
 : 0.5	14
> CC(=O)Nc1ccc(S(=O)(=O)N2CCN(C(=O)c3ncoc3-c3ccccc3)CC2)cc1
 : -1.5	-1
> CC1=NN(c2ccccc2)C(=O)C(C=C2C(=O)N(C)C(=S)N(C)C2=O)C1 (stereo unspecified)
 : 2.5	9
> O=C(O)C1CCCCC1C(=O)N1CCCC1 (stereo unspecified)
 : -2.2	5
> C#CCOC(=O)c1ccc(CSc2ccc(Cl)cc2)o1
 : nt	-13
> COC(=O)C1C2C=CC3(CN(c4cccc(C)c4)C(=O)C13)O2 (stereo unspecified)
 : nt	15
> O=c1oc2ccccc2o1
 : nt	6
> CCn1c2ccccc2c2cc(N=Cc3cc(C)n(-c4cccc(S(=O)(=O)N5CCOCC5)c4)c3C)ccc21
 : nt	-14
> CC(C)CC(c1nnnn1C1CCCC1)N1CCC(C(N)=O)CC1 (stereo unspecified)
 : 1.1	1
> CCn1c(C)cc2c(c1=O)C(c1cccc(OC)c1)C(C(=O)OC)=C(N)O2 (stereo unspecified)
 : nt	-16
> CCCc1cc(=O)oc2cc(OC(C)C)c(Cl)cc12
 : 1.2	-22
> O/N=C/N=C(NOCc1c(F)cccc1Cl)c1ccc(Cl)cc1
 : -1.0	nt
> COc1ccc(/C=C2\CC/C(=C\CC(C)C)C2=O)cc1Br
 : -3.5	6
> Cc1nn(C)c(C)c1NS(=O)(=O)c1cc(C(F)(F)F)cc(C(F)(F)F)c1
 : -1.3	nt
> COc1ccc(Cl)cc1NC(=O)CCN1CCN(c2ccccc2C)CC1
 : -1.2	11
> O=C1CCCN1S(=O)(=O)c1ccccc1
 : 4.7	15
> O=C(COc1ccccc1O)NO
 : 2.5	-4
> Cc1ccc(-c2cc(O)cc3sc(=O)oc23)cc1C
 : nt	-17
> CC1(C)Cc2ccccc2C(c2sc3nc4c(cc3c2N)CCC4)=N1
 : nt	-3
> COc1ccc(C(=O)CSc2nc(C)c(C(N)=O)c(C)c2C#N)cc1
 : nt	-14
> Cc1nc2ccc(S(=O)(=O)NC(C(=O)Nc3ccccc3C)c3ccccc3)cc2s1 (stereo unspecified)
 : 3.2	11
> CCOC(=O)c1[nH]c(C)c(/C(O)=C2\C(=O)C(=O)N(CCN3CCOCC3)C2c2ccco2)c1C (stereo unspecified)
 : 25	7
> Cc1cccc(N(CC(=O)O)CC(=O)O)c1
 : -3.0	1
> CCc1ccc(CNc2ccc3c(c2)ncn3C)cc1
 : 1.5	4
> CC(Sc1nnc2n1CCCCC2)C(=O)NCc1ccc2c(c1)OCO2 (stereo unspecified)
 : nt	9
> Cc1ccc(O)c(C(=O)c2cnn(-c3nc(C)cc(=O)[nH]3)c2)c1
 : nt	-9
> COc1ccc(N=C(N)/C(C#N)=C/c2[nH]c3ccccc3c2O)cc1
 : 22	-97
> CC(C)(C)c1ccc(C(=O)N2CCCc3ccccc32)cc1
 : 0.0	4
> CCOC(=O)CC(=N)N
 : 3.3	63*
> S=C(NCCc1c[nH]c2ccccc12)NCCN1CCOCC1
 : nt	8
> Cc1cccc(-c2nc(CSCC(=O)N3CCOCC3)c(C)o2)c1
 : nt	9
> C=CCn1c(COc2ccc(CC)cc2)nnc1SCC(=O)/C(C#N)=C(\C)N
 : nt	6
> CNC(=O)COC(=O)C1(c2ccc(Cl)cc2)CCC1
 : nt	-14
> CC(C)=CC(=O)Nc1ccccc1C(N)=O
 : 2.4	13
> CC(=O)Nc1ccc(/C=N/N2C(C)CCCC2C)cc1 (stereo unspecified)
 : nt	8
> Cc1cc(C)nc(SCc2nnc(SCC(=O)Nc3ccc(S(N)(=O)=O)cc3)n2C)n1
 : nt	-23
> CCOC(=O)c1c(C)n(C)c2ccc(OCC(N)=O)cc12
 : nt	-12

The results go on:
Values in the order – MgrA-DNA mod	Sa helicase inh
> COc1ccc(-c2onc3ccc4c5ccccc5oc4c23)cc1OC
 : 8.0	14
> COc1ccccc1NC(=O)C#Cc1ccccc1
 : 0.8	10
> Cc1nc2cccnc2n1-c1ccc(CC(=O)NCc2cccs2)cc1
 : nt	0
> COCC(=O)Nc1ccc(Cl)cc1
 : -0.3	3
> COc1cc(OC)c(C(=O)NCCCN2CCOCC2)cc1OC
 : 30	1
> Clc1nc(CN2CCOCC2)nc2scc(-c3ccccc3)c12
 : nt	-1
> O=C(c1ccc(Oc2cc(Cl)cc(Cl)c2)o1)N1CCN(Cc2cccnc2)CC1
 : -0.9	nt
> O=C(c1ccccc1CCc1ccccc1)N1CCOCC1
 : 2.2	8
> CCCCc1ccc2nc3sc(C(=O)O)cc3cc2c1
 : 2.9	-4
> COc1ccc(-n2c(SCC(=O)c3ccc(O)cc3O)nc3ccccc32)cc1
 : nt	-69
> O=C(NC1CC1)C1CCN(c2nc3cccnc3s2)CC1
 : nt	15
> NNC(=O)CNC(=O)c1cccnc1Oc1ccccc1
 : nt	-8
> CC(C)(Oc1ccc(Cl)cc1)C(=O)OCC(=O)N1CCCC1
 : nt	13
> O=C(c1ccccc1N=Nc1c(O)[nH]c(=O)[nH]c1=O)N1CCOCC1
 : -0.4	-5
> NC(=O)c1cc(N)ccc1N1CCCCC1
 : -3.5	-2
> N#Cc1ccc(COC(=O)C2CCCN2C2=NS(=O)(=O)c3ccccc32)cc1 (stereo unspecified)
 : nt	-4
> COCCn1c(=NC(C)=O)sc2cc(S(C)(=O)=O)ccc21
 : nt	9
> O=C(NCC(c1ccc(F)cc1)N1CCOCC1)Nc1cccc(C(F)(F)F)c1 (stereo unspecified)
 : nt	-5
> O=C(Cn1c(=O)oc2cc(S(=O)(=O)NC3CCCC3)ccc21)Nc1nccs1
 : nt	15
> CCOC(=O)c1sc(=S)n(CC)c1N
 : nt	5
> O=C(O)C1c2ccccc2C(=O)N(Cc2ccc(F)cc2)C1c1ccncc1 (stereo unspecified)
 : 0.8	nt
> CCc1nc(N2CCCCC2)c(C#N)c2c1CCCC2
 : 0.4	4
> O=C(Cc1ccccc1F)Nc1ccc(-n2cnnn2)cc1
 : nt	-13
> O=C1C(N2CCCCC2)=C(n2nnc3ccccc32)C(=O)c2ccccc21
 : nt	12
> O=C(O)CSC1CCS(=O)(=O)C1 (stereo unspecified)
 : -0.9	nt
> Cc1oc(-c2cccc(Br)c2)nc1CN1CCC(C(=O)NCC2COc3ccccc3O2)CC1 (stereo unspecified)
 : nt	4
> NC(=O)c1ccc(NC(=O)COc2coc(CN3CCc4ccccc43)cc2=O)cc1
 : nt	3
> CC(=O)Oc1cccc(-c2nc3cc(C)ccc3o2)c1
 : 2.1	7
> CCOC(=O)C1=C(C)N=c2s/c(=C/c3cc(Br)ccc3OC(C)=O)c(=O)n2C1c1ccccc1 (stereo unspecified)
 : -0.6	nt
> Cc1c(C(=O)N(C)C2CCCCC2)cnn1-c1ccccc1
 : -1.8	nt
> CC(=O)Nc1ccc(NC(=O)C2CC2(C)C)cc1 (stereo unspecified)
 : 0.4	nt
> O=C(/C=C/c1ccccc1)NC1CCS(=O)(=O)C1 (stereo unspecified)
 : nt	-20
> O=C(O)C12CC3CC(C1)CC(n1cnc(Cl)n1)(C3)C2
 : 2.8	7
> CCCN1CCN(C(=O)c2cn(Cc3ccccc3)nc2-c2ccccc2OC)CC1
 : nt	13
> CCOC(=O)/C=C1\SCC(=O)N1CCCCN1C(=O)c2ccccc2C1=O
 : nt	4
> Cn1c(=O)c2cc(C(=O)NCc3cccs3)sc2c2ccccc21
 : 1.1	5
> CS(=O)(=O)Cc1nc2ccccc2oc1=O
 : 0.8	15
> CCOC(=O)c1cccc(NC(=O)Cc2noc3ccccc23)c1
 : nt	-20
> Cc1nn(-c2ccccc2)c(C)c1/C=C/C(=O)OCn1nnc2ccccc2c1=O
 : nt	1
> COC(=O)c1ccc(NC(=O)CCNCc2ccco2)cc1
 : nt	-25
> CCCCCOc1ccc(O)cc1
 : nt	30
> O=C(O)Cn1cnc(-c2ccc(F)cc2)c1
 : nt	12
> O=C1CCCN2N=C(SCC(=O)Nc3nc4ccccc4s3)SC2=N1
 : nt	-9
> O=C1/C(=C/c2ccc(Cl)cc2)COc2ccc(F)cc21
 : -3.8	nt
> O=C(/C=C/c1cn(-c2ccccc2)nc1-c1ccccc1)OCC(=O)N1CCCC1
 : -1.8	15
> Cc1ccccc1-c1nc(CN2CCC(C(=O)NCCCN3CCCC(C)C3)CC2)c(C)o1 (stereo unspecified)
 : nt	12
> COc1ccc(-c2csc(=NCCO)n2-c2ccccc2)cc1
 : nt	11
> CC(C)(C)C(=O)NCCc1nc2ccccc2n1Cc1ccccc1F
 : nt	-12
> NC(=O)c1ccccc1C(=O)O
 : 2.7	nt
> CN(C)/C=C(\C#N)S(=O)(=O)c1cccs1
 : 1.9	nt
> COc1cc(/C=C2\C(=O)NC(=S)N(c3ccc(C(C)(C)C)cc3)C2=O)ccc1OCC(=O)O
 : 14	nt
> Clc1cc(Cl)c2nsnc2c1
 : 2.5	9
> COc1cc(/C=C2\C(=O)NC(=S)N(c3ccccc3)C2=O)ccc1OCc1ccc(C(=O)O)cc1
 : 14	nt
> Cc1ccccc1-c1nnn(CC(=O)NC2CCCCC2)n1
 : 1.8	16
> COC(=O)c1sccc1NC(=O)NS(=O)(=O)c1ccc(C)cc1
 : -0.8	nt
> CC(=O)Nc1ccc(-c2nc3cc(C)ccc3o2)cc1
 : 1.6	0
> CCCN1C2=C(C(=O)CCC2)C(c2ccc(F)cc2)C2=C1c1ccccc1C2=O (stereo unspecified)
 : -0.5	6
> CCOc1ccc(CNC(=O)C2CCN(c3nc4ccccc4o3)CC2)cc1
 : nt	-4
> COc1ccc2c(Cl)c(-c3nnc4n3CCC4)sc2c1
 : nt	8
> OC1(c2ccc(F)cc2)Cc2ccccc2C2=NCCN21 (stereo unspecified)
 : -3.2	nt

Single records, as listed above. Order of screens: MgrA-DNA mod | Sa helicase inh
Results for `CC(C)=CC(=O)Nc1ccccc1C(N)=O` = 2.4 | 13
Results for `Clc1cc(Cl)c2nsnc2c1` = 2.5 | 9
Results for `NC(=O)COc1ccccc1O` = 0.1 | -1
Results for `Cc1c(C(=O)N(C)C2CCCCC2)cnn1-c1ccccc1` = -1.8 | nt

Carrying on:
Values in the order – MgrA-DNA mod	Sa helicase inh
> Cc1cc(C)n(-c2ncnc3c2cnn3-c2ccccc2)n1
 : -0.9	nt
> CC1(C)OC(=O)C(=CNC(Cc2ccccc2)C(=O)O)C(=O)O1 (stereo unspecified)
 : nt	23
> COc1ccc(-n2nc(C(=O)N3CCCc4ccccc43)c3ccccc3c2=O)cc1
 : nt	-8
> FC(F)(F)c1cc(C#CCN2CCOCC2)cc(C(F)(F)F)c1
 : -2.5	nt
> COC(=O)C1CCN(c2ncc(C(F)(F)F)cc2Cl)CC1
 : 1.4	nt
> CC(C)C(NC(=O)C1CCCCC1)C(=O)NCc1cccnc1 (stereo unspecified)
 : nt	7
> CCc1c(C#N)c(N)nc(SCC(=O)OCc2ccccc2)c1C#N
 : 1.6	3
> CCc1ccc(NC(=O)c2noc3c2CCCC3)cc1
 : nt	-23
> N#CC(C(=O)c1ccccc1Cl)=C1SCCCS1
 : 1.1	nt
> COc1cc(OC)c(NC2=CC(=O)C(=O)c3ccccc32)cc1Cl
 : 1.6	17
> COc1ccc2oc(=O)c(C(=O)Nc3ccc(O)cc3)cc2c1
 : 1.4	2
> CCOc1cc(/C=C2\SC(=S)N(c3ccccc3)C2=O)ccc1O
 : nt	-38
> CCCn1c(=S)[nH]c2cc(C(=O)N3CCc4ccccc4C3)ccc2c1=O
 : nt	6
> COc1ccccc1OCc1ccc(C(=O)N2CCc3ccccc3C2)o1
 : nt	30
> COc1ccc(OC)c2c1sc(=NC(=O)C1CCCCC1)n2C
 : nt	8
> O=C(COCc1cc(-c2ccco2)on1)Nc1cc(C(F)(F)F)ccc1Cl
 : nt	18

Some of the compounds tested. The share of hits here may be higher or lower than overall.
